# MT1-MMP act inh: blockers of MT1-MMP proenzyme processing, primary screen, HT1080 RFP-PRO-GFP cells, GFP/RFP fluorescence; GFP/RFP ratio change, % at 20 µM; 0.061% of 360,000 active; GFP/RFP ratio fluorescence, overnight; percent of plate control window, DMSO zero;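 active = GFP/RFP ratio change of at least 30% with cell ATP level not reduced by more than half and red fluorescence within 50% of control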; also: strong numbers were not always called active
#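 Material – HT1080 RFP-PRO-GFP cells · Control set – DMSO wells and RFP-L50D-GFP cells · Incubation – overnight cell settling, then overnight compound exposure, 37 °C, 5% CO2 · Compound dosing – single-point 20 µM compound, 1% DMSO · Read-out – GFP/RFP fluorescence ratio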
# CSC inhib: cancer stem cell viability inhibitors, primary screen, luminescence; inhibition, % at 7.5 µM; cancer stem cell-like cells viability; 1.1% of 300,000 active;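 active = mean at 75% or more and at least half the replicates too; inconclusive = mean and replicates disagree; tested in HMLE shEcad cells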;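 also: 0% = median of negative and 100% = median of positive control wells; the first replicate is given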
# Rce1 inhib: yeast Rce1p protease inhibitors, primary screen, biochemical, fluorescence, cell-free homogeneous; calls only; 0.27% of 290,000 active; yeast membranes, quenched prenylated peptide cleavage fluorescence;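 active = fall in fluorescence gain of 50% or more versus controls, with final raw signal at or below 3038400; inconclusive = same 50% fall but final raw signal above 3038400; inactive = fall in fluorescence gain under 50%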;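 also: plate controls were neutral control wells for no effect and wells lacking membranes for full effect; tested at 10 µM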
# PABP FP inh: PABP poly(A) RNA binding inhibitors, primary screen, biochemical, fluorescence polarization, uHTS | inhibition, % at 35 µM | 1% of 290,000 active;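 active = 50% or more with normal probe brightness, or confirmed in later tests; inconclusive = above 50% with abnormal brightness, or retests that disagree; inactive = below 50% or failed in later tests; about a fifth of its hits are not listed in these tables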;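 also: calls also rest on retests at 20 µM and on dose response follow-up; controls were probe without protein and protein plus probe with vehicle; some compounds called inactive have numbers as strong as hits; many hits fall short of the cut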
# Target sequence (P11940 whole entry, looked up): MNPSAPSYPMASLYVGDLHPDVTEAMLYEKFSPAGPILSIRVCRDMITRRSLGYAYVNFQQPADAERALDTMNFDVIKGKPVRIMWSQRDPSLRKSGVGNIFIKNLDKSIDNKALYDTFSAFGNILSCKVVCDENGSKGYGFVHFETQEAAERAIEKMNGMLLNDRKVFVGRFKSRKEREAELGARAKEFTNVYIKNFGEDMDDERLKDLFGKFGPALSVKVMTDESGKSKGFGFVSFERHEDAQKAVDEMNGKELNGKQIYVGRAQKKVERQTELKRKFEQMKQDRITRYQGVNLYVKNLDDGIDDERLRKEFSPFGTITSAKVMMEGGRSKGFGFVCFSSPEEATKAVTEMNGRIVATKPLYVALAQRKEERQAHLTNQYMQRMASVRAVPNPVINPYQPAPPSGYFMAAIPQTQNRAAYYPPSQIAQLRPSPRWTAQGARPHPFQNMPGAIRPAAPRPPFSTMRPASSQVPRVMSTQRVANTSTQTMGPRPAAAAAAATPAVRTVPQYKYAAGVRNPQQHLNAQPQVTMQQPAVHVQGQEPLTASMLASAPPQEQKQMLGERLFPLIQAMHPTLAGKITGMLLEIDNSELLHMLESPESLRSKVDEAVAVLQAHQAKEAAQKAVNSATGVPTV
# eIF4H inh: human eIF4H binding inhibitors, primary screen, translation initiation inhibitor project, biochemical, uHTS, fluorescence polarization; Eukaryotic translation initiation factor 4H (Homo sapiens), Q15056; eIF4H fluorescence polarization binding assay; inhibition, % at 35 µM; 0.94% of 290,000 active; AID 2012, 2009;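 active = 50% or more with normal probe brightness, or confirmed in later tests; inconclusive = above 50% with abnormal brightness, or retests that disagree; inactive = below 50% or failed in later tests; about a fifth of its hits are not listed in these tables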;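 also: calls also rest on retests at 20 µM and on dose response follow-up; 0% = protein and probe with vehicle and 100% = probe without protein; strong numbers were not always called active; many hits fall short of the cut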
# HIV Env fusion: inhibitors of HIV-1 Env-driven cell-cell fusion, primary screen, HeLa-JRFL effector, CEM21 target cells, luciferase; 1.1% of 360,000 active; inhibition, % at 12.3 µM; AID 651610, 2012;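 active = mean replicate inhibition score of at least 50 and every replicate individually at or above 50; inconclusive = only one of the two criteria met; inactive = mean below 50 and not all replicates reaching 50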;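 also: 0% = plate neutral controls and 100% = maraviroc near 300 nM; one replicate is shown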
# UUG fidelity: modulators of yeast start codon fidelity, primary screen, whole organism, S. cerevisiae, single point, plate reader; activity score, % at 18.7 µM; 0.13% of 350,000 active; S. cerevisiae UUG-firefly luciferase reporter, luminescence/redox ratio;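 active = replicate mean at a twofold rise or more, about +100% in these data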;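 also: firefly luciferase made from a UUG start codon reports start codon fidelity; reporter light over untreated wells divided by growth signal over untreated wells; some hits fall short of that in this replicate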
# eIF4H inh retest: second read-out of eIF4H inh, no call of its own (marks repeat the call); inhibition, %; compound at 20 µM; confirmation average;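 mean of two retest wells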
# PABP FP inh retest: further read-out of PABP FP inh, marked with its call; inhibition, %; compound at 20 µM; confirmation repeats;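 mean of two retest wells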
# MT1-MMP act inh RFP: recorded beside MT1-MMP act inh, whose call it bears; RFP signal change, %; measured here: RFP expression control read;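 0 = vehicle wells; hits needed this value within 50% of zero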
# Numbers without * were called inactive; i = inactive; ? = inconclusive; nt = not tested or not shown; & = joins results of further samples. No enrichment for hits; any-hit rate near 3%.
# The first 7 compounds as a preview:
SMILES,MT1-MMP act inh,MT1-MMP act inh RFP,CSC inhib,Rce1 inhib,PABP FP inh,eIF4H inh,HIV Env fusion,UUG fidelity,others
Cc1ccccc1NC(=O)Cn1nc(-c2ccccc2)nc1-c1ccccc1,-3,-3,15,i,-5,0,-55,-9,
CCN(CC(=O)NCc1ccc(Cl)cc1)C(=O)/C=C/c1cc(OC)c(OC)c(OC)c1,3,-1,nt,i,-9,-9,8,-14,
Cc1ccc2nc(NC(=O)C3CCCN(S(=O)(=O)c4cnc[nH]4)C3)sc2c1 (centres undefined),-1,1,-8,i,4,-1,-79,8,
Nc1c(S(=O)(=O)c2cccs2)c2nc3ccccc3nc2n1Cc1ccccc1,-8,-1,nt,i,-7,-9,43,-12,
CCc1noc(C)c1C(=O)Nc1cc(Cl)ccc1N1CCOCC1,-2,0,nt,i,nt,nt,-2,nt,
CCOc1ccc(N(CC(=O)NCc2ccccc2)C(=O)Cn2nnc(-c3ccc(C)o3)n2)cc1,0,-1,-10,i,4,-5,-11,4,
CCOC(=O)C1(Cc2ccccc2)CCN(Cc2csc(C(C)=O)c2)CC1,0,-2,-1,i,5,2,-1,3,

# The whole of this part, previewed entries included:
SMILES,MT1-MMP act inh,MT1-MMP act inh RFP,CSC inhib,Rce1 inhib,PABP FP inh,eIF4H inh,HIV Env fusion,UUG fidelity,others
Cc1ccccc1NC(=O)Cn1nc(-c2ccccc2)nc1-c1ccccc1,-3,-3,15,i,-5,0,-55,-9,
CCN(CC(=O)NCc1ccc(Cl)cc1)C(=O)/C=C/c1cc(OC)c(OC)c(OC)c1,3,-1,nt,i,-9,-9,8,-14,
Cc1ccc2nc(NC(=O)C3CCCN(S(=O)(=O)c4cnc[nH]4)C3)sc2c1 (centres undefined),-1,1,-8,i,4,-1,-79,8,
Nc1c(S(=O)(=O)c2cccs2)c2nc3ccccc3nc2n1Cc1ccccc1,-8,-1,nt,i,-7,-9,43,-12,
CCc1noc(C)c1C(=O)Nc1cc(Cl)ccc1N1CCOCC1,-2,0,nt,i,nt,nt,-2,nt,
CCOc1ccc(N(CC(=O)NCc2ccccc2)C(=O)Cn2nnc(-c3ccc(C)o3)n2)cc1,0,-1,-10,i,4,-5,-11,4,
CCOC(=O)C1(Cc2ccccc2)CCN(Cc2csc(C(C)=O)c2)CC1,0,-2,-1,i,5,2,-1,3,
CCCOc1ccc(C(=O)NNC(=S)NC(=O)c2cc(-c3ccc(Cl)cc3)nc3ccccc23)cc1,-6,-18,71,i,-6,12,nt,-17,
CCCn1c(SCC(=O)Nc2ccccc2N2CCCCC2)nc2c1c(=O)n(C)c(=O)n2C,-6,-5,3,i,1,-4,nt,2,
O=C(CSc1nc(C(F)(F)F)cc(=O)[nH]1)Nc1ccc2c(c1)OCCO2,-1,7,-6,i,nt,nt,21,-12,
CCCC(=O)NNc1cc(=O)c2c(=O)n(C)c(=O)n(C)c2[nH]1,4,4,-8,i,3,-6,nt,nt,
O=C(O)CNC(=O)c1ccc(OC(F)F)cc1,10,5,-5,i,4,0,nt,-3,
Cc1cc2c3c([nH]c2cc1S(=O)(=O)N1CCC2(CC1)OCCO2)CC(C)(C)CC3=O,4,-8,-10,i,-1,-13,0,2,
Cc1ccccc1OCC(=O)Nc1ccc2c(c1)Cc1ccccc1-2,-2,-1,2,i,-2,-2,nt,-11,
COc1ccc(C=NNc2ccc(S(=O)(=O)Nc3ccccc3C(=O)O)cc2[N+](=O)[O-])c(OC)c1,27,1,40,nt,nt,nt,nt,-21,
C/C(=C/C=N/Nc1nc(N2CCCCC2)nc(N2CCCCC2)n1)c1ccccc1,-3,-3,1,i,-6,-10,-6,-13,
O=C(CSc1ccc(F)cc1)NC(=O)NCc1ccccc1,4,3,-4,i,-7,3,-10,-12,
c1ccc(-c2csc(N3CCCCCC3)n2)cc1,-13,-2,-5,i,-4,4,nt,-2,
O=C(O)CNC(=S)N(Cc1ccccc1Cl)C1CCCC1,0,2,nt,i,4,-8,-45,nt,
CCOC(=O)N1CCN(C(=O)c2c[nH]c3ccc(S(=O)(=O)N(C)c4ccc(OCC)cc4)cc3c2=O)CC1,0,2,-5,i,1,1,-7,-2,
COCCn1c(SCC(=O)c2c(N)n(C3CC3)c(=O)[nH]c2=O)nnc1-c1cccc(C)c1,4,1,-9,nt,nt,nt,-10,-16,
COc1cc(S(=O)(=O)Nc2ncn[nH]2)ccc1Cl,-1,2,nt,i,1,-4,-9,-14,
CC(=O)c1ccc(NC(=O)/C(=C\c2ccccc2)NC(=O)/C=C/c2ccccc2)cc1,-3,-1,-6,i,-16,-2,22,nt,
Cn1c(-c2ccccc2)cnc1SCC(=O)NCc1ccco1,0,4,-18,i,6,2,nt,-23,
O=C(c1cccs1)N1CCN(C23CC4CC(CC(C4)C2)C3)CC1,4,6,-24,i,2,-9,0,8,

# The listing continues.
SMILES,MT1-MMP act inh,MT1-MMP act inh RFP,CSC inhib,Rce1 inhib,PABP FP inh,eIF4H inh,HIV Env fusion,UUG fidelity,others
CC1(C)CC(NC(=O)c2cc(S(=O)(=O)N3CCOCC3)c(Cl)cc2Cl)CC(C)(C)N1,2,1,27,i,nt,nt,-8,nt,
COc1ccc(NC(=O)C(c2ccccc2)N(C)C(=O)CNC(C)=O)cc1 (centres undefined),-6,-2,3,nt,-4,7,19,2,
CCCCNC(=O)C1c2cc(OC)c(OC)cc2C(=O)N(C)C1c1cccs1 (centres undefined),1,8,-3,i,0,3,-8,-1,
C[C@H]1CN([C@@H](C)CO)C(=O)CCCn2cc(nn2)CO[C@@H]1CN(C)C(=O)c1cc(-c2ccccc2)on1,-1,1,nt,nt,nt,nt,-1,0&19,
O=C(CSc1ccc2ccccc2n1)NCc1ccc2c(c1)OCO2,-2,2,3,i,9,2,1,nt,
O=C(CN1CCc2ccccc2C1)Nc1cccc(S(=O)(=O)N2CCCC2)c1,2,1,-11,i,15,18,-4,nt,
CCN(CC)c1nc(Nc2ccccc2)nc(Oc2ccc(C(=O)OC)cc2)n1,-42,-38,55,i,3,-6,41,-17,
Cc1ccc(S(=O)(=O)Oc2ccc(/C=N/NC(=O)c3cccnc3)cc2)cc1,3,6,2,i,-1,7,19,-9,
Cc1ccc(CC(=O)NC(C)CCc2ccccc2)cc1 (centres undefined),-1,0,-14,i,-3,8,-4,6,
COc1cccc(-c2nnc(SCC(=O)N3CCCc4ccccc43)o2)c1,-5,-5,-9,nt,-2,4,nt,0,
CCN(CC)S(=O)(=O)c1cc(C(=O)OCC(=O)Nc2c(F)cccc2F)ccc1F,0,4,0,i,?,11,10,0,
CN1CCc2c(sc(N)c2C(=O)O)C1,-5,2,3,i,14,22,16,nt,
O=C1c2ccccc2C(=O)c2c1cccc2N1CCCC1,25,12,34,i,-4,34,-17,6,
O=C(N/N=C/c1c(O)ccc2ccccc12)c1ccc(CO)nc1,-54,-5,87*,i,12,-10,-3,-28,
COc1cc(C(=O)NC2CCN(CC(=O)NC3CCCCC3C)CC2)cc(OC)c1OC (centres undefined),-1,1,-8,i,4,5,3,-18,
CN(C)c1ccc(NC(=O)CSc2nc3ccccc3c(=O)n2C2CCCCC2)cc1,-13,-12,nt,i,-2,-5,-30,-9,
CCc1nnc(NC(=O)CCS(=O)(=O)c2ccc(C)cc2)s1,0,4,-15,i,nt,nt,nt,nt,
CC12CCC(C(=O)Nc3cccc(Cl)c3Cl)([C@H](Br)C1=O)C2(C)C (some centres undefined),-1,-3,54,i,4,-6,24,nt,
O=C(Nc1cccnc1)c1ccccc1Cl,0,2,-8,i,3,3,12,-4,
Nc1nncn1C(=O)c1ccc(Cl)cc1Cl,0,4,-4,i,2,3,3,nt,
O=C(NCCC1=CCCCC1)C1CCN(Cc2cnn(-c3ccccc3)c2-n2cccc2)CC1,1,-6,-11,i,-7,-11,nt,2,
Cc1ccc(N=C2NC(=O)/C(=C/C=C/c3ccco3)S2)cc1,-7,4,20,i,22*,76*,-10,nt,eIF4H inh retest=88*;PABP FP inh retest=68*
COc1ccc(C)cc1NC(=O)c1sc2ncn(CC(=O)N3CCCCC3)c(=O)c2c1C,7,3,-2,i,-3,-19,7,-22,
O=C(Oc1ccccc1N1CCOCC1)c1sccc1Br,4,4,5,i,8,-4,3,nt,
CS(=O)(=O)N(CCc1ccccc1)CC(=O)N1CCN(c2ccccc2F)CC1,-1,-9,0,i,1,3,nt,-1,
COc1cc(NC(=S)NC(=O)c2ccc(F)cc2)ccc1NC(=O)c1ccco1,-3,1,5,i,-2,-4,20,-2,

# Random excerpt: 5 compounds from above.
SMILES,MT1-MMP act inh,MT1-MMP act inh RFP,CSC inhib,Rce1 inhib,PABP FP inh,eIF4H inh,HIV Env fusion,UUG fidelity,others
COc1cc(NC(=S)NC(=O)c2ccc(F)cc2)ccc1NC(=O)c1ccco1,-3,1,5,i,-2,-4,20,-2,
Nc1nncn1C(=O)c1ccc(Cl)cc1Cl,0,4,-4,i,2,3,3,nt,
O=C(CSc1ccc2ccccc2n1)NCc1ccc2c(c1)OCO2,-2,2,3,i,9,2,1,nt,
CN(C)c1ccc(NC(=O)CSc2nc3ccccc3c(=O)n2C2CCCCC2)cc1,-13,-12,nt,i,-2,-5,-30,-9,
O=C(N/N=C/c1c(O)ccc2ccccc12)c1ccc(CO)nc1,-54,-5,87*,i,12,-10,-3,-28,
